Screening results: PubChem, National Center for Advancing Translational Sciences (NCATS)
TRPML1 blocker = human mucolipin-1 channel inhibition | TRPML1-inducible cells, Ca2+ dye fluorescence, FDSS; hits give low values; inhibition of EC80 agonist-evoked calcium signal | actives 0.02% (n = 390,000) | activity change, negative = inhibition, % (test concentration not listed); in the data active means activity change below about -50%; inconclusive means about -30% to -50%; inactive means above about -30%;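 also: stimulus is agonist 54-4 at its EC80 concentration; % is scaled to controls: 0 for no effect and ±100 for the full control effect; compound concentration not given in the record; the text of the record puts the active cut at -80%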
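TRPML1-DL cells, Tet-induced overnight (~16 h, 37 °C) at 1,500 cells/well, were loaded with Ca8 no-wash dye plus quencher for 45-90 min at room temperature. Compounds were pinned during FDSS kinetic reading; agonist 54-4 at EC80 (4 uM final) then added.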
PINK1 expr mod = PINK1 expression modulation. PINK1 immunofluorescence, high-content cytometry, 24 h. actives 0.2% (n = 410,000). Potency, µM (series often up to 76.6 µM), inactives show top-dose activation (PINK1 increase), most hits filed as activators; active = well fitted activation curve with a large enough effect; inconclusive = small, poorly fitted or top-dose-only effect; inactive = flat fitted curve, though single readings scatter; cell line not stated here;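 also: potency is read from the fitted curve at half-maximal effect; % of control where 0% means no effect; nearly all actives have a fitted effect of over 65% in size; a mitochondrial uncoupler was the plate control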
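Decision-based qHTS: stable cells, 24 h exposure to five compound concentrations, CCCP as control. Fixed cells stained for PINK1 plus nuclear, mitochondrial and cell markers, cytometer read.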
D2 ag = human D2 receptor agonism in beta-arrestin assay | P14416 | DiscoveRx PathHunter D2 beta-arrestin, luminescence, 90 min; 100% = 57 uM dopamine signal | activation, % (test concentration not listed) | actives 0.084% (n = 360,000) | AID 624465; in the data active = activation above about 40%; inconclusive = about 15% to 40%; inactive = below about 15%; also: compound concentration not given in the record; the text of the record calls up to 30% inactive
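DiscoveRx PathHunter D2 beta-arrestin cells (2,100/well) attached overnight, then compound-stimulated 90 min at 37 C in HBSS/10 mM HEPES/0.1% Tween-20 buffer; beta-galactosidase complementation read by luminescence after 1 h at ambient temperature. Dopamine 57 uM final (EC100) as control.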
D2 potentiator = human D2 receptor positive allosteric modulation. DiscoveRx D2 beta-arrestin cells, luminescence, 90 min; 100% = 57 uM dopamine signal. actives 0.23% (n = 360,000). AID 624464. potentiation, % (concentration not given with the values). P14416; active = potentiation of 50% or more; inconclusive = 30% to 50%; inactive = 30% or less;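 also: compound concentration not given in the record; tested on top of an EC20 dose of dopamine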
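PathHunter D2 cells, attached overnight at 37 deg C, received compound in DMSO plus dopamine at EC20 (50 nM final) for 90 min at 37 deg C. Beta-arrestin recruitment was read as luminescence after 1 h with detection reagent at ambient temperature.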
TRPML1 ag = activates the human TRPML1 channel | TRPML1-expressing cells, Ca2+ dye fluorescence, FDSS; host cell line not named in the record; reference of the full effect not given here | activation, % (concentration not given with the values) | actives 0.12% (n = 410,000); in the data active = activation above about 50%; inconclusive = about 30% to 50%; inactive = below about 30%; also: 0% is about no effect; the text of the record puts the active cut at 80%
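TRPML1-DL cells, Tet-induced overnight (~16 h, 37 degrees C), loaded 45-90 min at room temperature with Ca8 no-wash calcium dye plus quencher. FDSS fluorescence: 10 s baseline, compound pin-transfer, 110 s agonist read, then EC80 54-4 (4uM final) and 110 s antagonist read.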
Six1-Eya2 blk = Six1/Eya2 interaction inhibition. AlphaScreen GST-Six1/His-Eya2 binding, biochemical; hits give low values; control for the full effect not named in the record. activity change, % (test concentration not listed). actives 0.56% (n = 360,000); in the data active = activity change below about -65%; inconclusive = about -30% to -65%; inactive = above about -30%; also: % is scaled to controls: 0 for no effect and ±100 for the full control effect; compound concentration not given in the record
Target sequence (O00167 whole entry, looked up): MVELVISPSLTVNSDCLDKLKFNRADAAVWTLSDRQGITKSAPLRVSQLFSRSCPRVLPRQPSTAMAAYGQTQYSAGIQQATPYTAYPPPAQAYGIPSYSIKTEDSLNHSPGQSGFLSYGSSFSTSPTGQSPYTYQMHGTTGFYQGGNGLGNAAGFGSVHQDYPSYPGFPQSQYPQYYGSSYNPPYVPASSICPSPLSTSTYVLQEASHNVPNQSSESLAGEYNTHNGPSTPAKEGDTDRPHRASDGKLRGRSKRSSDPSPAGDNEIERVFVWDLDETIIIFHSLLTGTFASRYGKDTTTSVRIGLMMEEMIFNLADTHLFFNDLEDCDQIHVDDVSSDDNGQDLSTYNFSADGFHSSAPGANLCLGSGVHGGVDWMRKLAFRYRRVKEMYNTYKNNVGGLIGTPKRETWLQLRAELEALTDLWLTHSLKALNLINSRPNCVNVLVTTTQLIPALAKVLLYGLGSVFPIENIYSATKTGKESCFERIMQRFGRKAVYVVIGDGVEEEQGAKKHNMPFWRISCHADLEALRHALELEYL
Target sequence (Q15475 whole entry, looked up): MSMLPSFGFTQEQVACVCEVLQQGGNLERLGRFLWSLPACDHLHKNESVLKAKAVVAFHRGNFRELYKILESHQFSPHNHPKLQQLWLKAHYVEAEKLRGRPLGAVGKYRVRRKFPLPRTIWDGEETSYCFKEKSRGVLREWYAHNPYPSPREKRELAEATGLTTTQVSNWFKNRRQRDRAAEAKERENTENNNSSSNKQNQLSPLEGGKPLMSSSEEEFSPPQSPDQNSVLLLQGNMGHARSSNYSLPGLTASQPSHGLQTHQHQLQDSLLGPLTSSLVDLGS
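AlphaScreen luminescence read after one hour at 37 °C in darkness. Pin-transferred compounds met GST-Six1 and His-Eya2 protein (5X stock 250 nM/500 nM) plus glutathione donor and Ni-chelate acceptor beads (5X, 50 ug/mL).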
Starred values were filed as active, the others as inactive; ? = inconclusive; nt = not tested or not shown; & = joins results of further samples; [ ] = dose if it differs, or a comment.

cpd | SMILES | TRPML1 blocker | PINK1 expr mod | D2 ag | D2 potentiator | TRPML1 ag | Six1-Eya2 blk
1 | COc1ccc(NC(=O)Cn2nnc(C(=O)NCc3ccco3)c2N)cc1 | 6 | 3.1% | -11 | -5 | -1.0 | -12
2 | COC(=O)c1cccc(NC(=O)/C(=C\c2ccco2)NC(=O)c2ccco2)c1 | 13 | 0.4% | -1.4 | -8 | 0.2 | -1
3 | COc1ccc(CSCCc2n[nH]c(=S)n2-c2ccccc2)cc1 | 3 | -1.2% | -2.0 | -10 | 1.7 | 1
4 | CN1CCN(C(=O)c2ccc(CNS(=O)(=O)c3ccc(F)c(Cl)c3)cc2)CC1 | 4 | -1.0% | 1.2 | -11 | 0.5 | -17
5 | Cc1cc(NC(=O)COn2nnc3ccc(Cl)cc32)no1 | 11 | 0.6% | -2.7 | -17 | 2.2 | -7
6 | Cn1c(CNc2ccccn2)c(C#N)c2ccccc21 | -6 | 0.4%[38.3 µM] | -3.1 | -24 | -0.6 | 0
7 | CC(C)(CO)NCc1cc(Br)ccc1OCc1ccccc1 | 7 | -1.7%[38.3 µM] | 0.0 | -13 | 0.3 | -4
8 | C[C@@H]1CN([C@@H](C)CO)S(=O)(=O)c2ccc(-c3ccc(C#N)cc3)cc2O[C@@H]1CN(C)Cc1ccccn1 | nt | 4.5% | 6.0 | nt | nt | -2
9 | O=C(COC(=O)Cc1c(F)cccc1Cl)NNC(=O)c1ccccc1 | -11 | 5.2% | -0.7 | 2 | -1.3 | -1
10 | O=C(Nc1cccc(S(=O)(=O)N2CCCCCC2)c1)C1CCN(C(=O)c2ccc(F)cc2)CC1 | 6 | -0.8% | -4.5 | 5 | -0.2 | -8
11 | NC(=O)C1CCN(CCC(=O)Nc2ccc(Br)cc2)CC1 | -4 | nt | -1.1 | -14 | 0.0 | -3
12 | Cc1ccc(S(=O)(=O)N2CCN(S(=O)(=O)N3CCCCC3)CC2)c(C)c1 | -10 | nt | -3.5 | -4 | 0.0 | 2
13 | CCN(c1ccccc1)S(=O)(=O)c1ccc(C(=O)Nc2ncccc2C)cc1 | -17 | -2.7% | 1.9 | -4 | 0.1 | 10
14 | CCC(C(=O)NC(C)(C)C)N(Cc1ccco1)C(=O)Cn1nnc(-c2ccc(F)cc2)n1 (stereo not given) | -13 | -0.6% | -5.2 | -6 | 1.0 | 10
15 | COc1ccc(NC(=O)COc2cccnc2[N+](=O)[O-])cc1OC | -4 | -0.1% | 5.8 | -2 | -0.1 | -3
16 | CCc1ccc(CN2CCC(n3nccc3NC(=O)c3cccc(F)c3)CC2)cc1 | -9 | 0.0% | -2.1 | -30 | -0.6 | -2
17 | O=C(/C=C/c1c(F)cccc1Cl)N1CCc2ccccc2C1 | 19 | 4.0% | -2.0 | -5 | 1.9 | 6
18 | CC(=O)c1ccc(N(CC(=O)NC2CCCC2)C(=O)c2ccc(C)s2)cc1 | 10 | 1.4% | 5.2 | -4 | -0.3 | 5
19 | Cc1ccccc1-n1c(=O)cc(N2CCC3(CC2)OCCO3)[nH]c1=O | 1 | -2.2% | 1.5 | 11 | 0.1 | 4
20 | O=S(=O)(c1ccccc1)n1nc(-c2ccc(Cl)cc2)nc1NCc1ccccc1 | 11 | -1.0% | nt | nt | 0.5 | nt
21 | CCC[C@@H]1C[C@@]1(CCC)[C@@H](NP(=O)(c1ccccc1)c1ccccc1)c1ccc(C(=O)OC)cc1 | -14 | -1.1% | -0.1 | -8 | 2.0 | -6
22 | CCOCCCn1c(=N)c(C(=O)NC(C)c2ccccc2)cc2c(=O)n3cc(C)ccc3nc21 (stereo not given) | -5 | 1.5% | nt | nt | -0.3 | nt
23 | CCOc1nc(S(=O)(=O)c2ccc(C)cc2)c(Cl)s1 | -19 | ? | 2.8 | -5 | 2.2 | 13
24 | Cc1ccc(C(=O)C(C)OC(=O)c2cc3cc([N+](=O)[O-])ccc3oc2=O)cc1 (stereo not given) | 4 | -4.6%[38.3 µM] | -3.2 | -15 | -0.3 | -2
25 | CCOc1ccc(CCNC(=O)c2cn(-c3cccc(OC)c3)c(=O)c3ccccc23)cc1 | -10 | 4.9% | nt | nt | 2.6 | nt
26 | O=C(Nc1cccc(C(F)(F)F)c1)c1cc2c(s1)-c1ccccc1OC2 | 2 | 6.8% | -2.2 | -13 | 0.7 | 15
27 | CCNc1nc(OC)nc(SCC(=O)Nc2ccccc2)n1 | 19 | 2.0% | -2.7 | -8 | -0.2 | 7
28 | O=C1OC(c2ccc(Cl)cc2)=N/C1=C\c1cccnc1 | -6 | 3.0% | -2.0 | -2 | -0.8 | 3
29 | CCOC(=O)C1CCCN(C(=O)CSCc2ccccc2)C1 (stereo not given) | 2 | -1.2% | -1.3 | 1 | -0.6 | 2
30 | CC1CCCCC1NC(=O)C1CC(=O)N(Cc2ccccc2)C1 (stereo not given) | 17 | 1.4% | 1.3 | 4 | 0.6 | 5
31 | COc1cccc(CNC(=O)Cn2c(=O)n3nc(-c4cccc(F)c4)nc3c3ccccc32)c1 | -3 | 1.8% | nt | nt | 0.1 | nt
32 | COc1ccc2sc3c(=O)[nH]c4ccccc4c3c2c1 | -7 | -2.0% | -2.4 | -3 | 1.1 | -12
33 | Cc1nn(-c2ccccc2)c(C)c1/C=C/C(=O)OC(C)C(=O)Nc1ncc(Cl)cc1Cl (stereo not given) | -3 | -0.2% | -3.6 | -17 | 1.4 | -15
34 | Cc1cccc(C)c1NC(=O)C1CCN(C(=O)c2cccs2)CC1 | -1 | 1.8% | -3.5 | -4 | 0.2 | -2
35 | Cc1ccc(S(=O)(=O)N2CCOCC2)cc1NC(=O)COC(=O)Cc1ccc(Cl)cc1 | 8 | 0.7% | -4.6 | -10 | 1.9 | 0
36 | NS(=O)(=O)c1ccc(CCNC(=O)COC(=O)/C=C/c2ccc(Cl)cc2)cc1 | 14 | -1.3% | -2.5 | -14 | 0.9 | -15
37 | C=CC[C@@H](CC(=O)NCCO)C(=O)NC[C@@H](OC(=O)[C@H](CC=C)CC(=O)OC(C)(C)C)c1ccccc1 | -13 | 0.0% | -2.8 | -12 | 1.6 | -1
38 | CC(O)CO (stereo not given) | -10 | 0.2% | -2.9 | -13 | 0.3 | 7
39 | Cc1oc(-c2cccc(Br)c2)nc1CSc1nc2ncccc2[nH]1 | 7 | 1.4% | nt | nt | -0.5 | nt
40 | Clc1ccc2c(c1)NC(c1ccncc1)=NC(c1cccs1)=N2 | -6 | 0.6% | nt | nt | 1.2 | nt
41 | Cc1ccc(NCc2nnc(SCC(=O)N3CCc4ccccc43)n2C)cc1 | -6 | 7.3%[38.3 µM] | -4.0 | 4 | 2.9 | -4
42 | COCCCNCCCOc1ccc(C)cc1Br | -24 | -2.3% | -5.2 | -31 | -1.2 | 6
43 | Cc1c(NC(=O)c2cc(-c3ccc(Cl)c(Cl)c3)on2)c(=O)n(-c2ccccc2)n1C | 4&-12 | 4.0%&2.2% | -4.0 | -4 | -0.6&-1.1 | 3
44 | Cc1ccc(NS(=O)(=O)c2ccc(-c3cnc(C4CC4)o3)cc2)c(C)c1 | 7 | 1.4% | 1.8 | -7 | 2.0 | -4
45 | CCOCC(O)CSCc1ccc(Cl)cc1 (stereo not given) | -3 | nt | 2.8 | -9 | 0.4 | -2
46 | Cc1ccc(S(=O)(=O)N2CCCCC2)cc1NC(=O)Cn1cnnn1 | -7 | 1.1% | -4.4 | -13 | -0.4 | -1
47 | CCOC(=O)Cc1ccc(NC(=O)c2ccccc2Br)cc1 | -2 | -0.9% | -0.2 | -14 | 4.2 | 0
48 | CCC(=O)N1CCN(c2ccc(Cl)cc2NC(=O)c2ccc([N+](=O)[O-])o2)CC1 | 19 | 1.4% | 10 | 2 | -0.8 | -1
49 | CC(/C=N/n1c(C2CCCCC2)n[nH]c1=S)=C\c1ccccc1 | 22 | 5.2% | -3.0 | -24 | 0.9 | -21
50 | c1ccc(CCc2cc3ccccc3[nH]2)cc1 | -5 | 5.0% | -2.4 | -4 | -0.4 | -6
51 | CCCS(=O)(=O)NC(=O)C1(C)CCCN(C(=O)c2ccc3snnc3c2)C1 (stereo not given) | nt | -0.6% | -2.1 | -5 | -0.7 | 2
52 | O=C(NCc1cccnc1)c1cc(C2CCCCN2S(=O)(=O)Cc2ccccc2)on1 (stereo not given) | nt | -0.3% | -6.2 | -12 | -0.8 | 7
53 | CC(C)c1cccc(-c2csc(C(O)c3cccc(Cl)c3)n2)c1 (stereo not given) | nt | -0.4% | -1.9 | -7 | 0.7 | 1
54 | Cc1cnc(NC(=O)CSc2nnc(Cc3ccccc3)n2C)s1 | 11 | 2.8%[38.3 µM] | 0.2 | -5 | -0.8 | 1
55 | C=CCOc1ccc(CN(C)C(=O)c2ccc(CNS(=O)(=O)c3ccc(C)c(C)c3)cc2)cc1 | 10 | 1.4% | 1.7 | -1 | 2.2 | -8
56 | O=C(Nc1ccc(F)cc1)c1cccn1-c1nnc(N2CCCCC2)s1 | 9 | -1.0% | nt | nt | 0.3 | nt
57 | Cn1cccc1Cc1nnc(SCC(=O)NCc2ccc3c(c2)OCO3)n1CCc1ccccc1 | -11 | 0.0%[38.3 µM] | -1.8 | -3 | 0.4 | -12
58 | CN1CCCN(S(=O)(=O)c2ccc3ccccc3c2)CC1 | 19 | -0.1% | -1.0 | -7 | -0.3 | 19
59 | CC(Oc1ccccc1)C(=O)Nc1ccccc1O (stereo not given) | 5 | -0.7% | 1.3 | -10 | 1.6 | 2
60 | Cc1cc(S(=O)(=O)NCCC2=CCCCC2)ccc1Br | 1 | 5.9% | -1.0 | -9 | 11 | 25

Going on with the list:
cpd | SMILES | TRPML1 blocker | PINK1 expr mod | D2 ag | D2 potentiator | TRPML1 ag | Six1-Eya2 blk
61 | O=C(O)c1ccccc1SC1CC(=O)N(C2CCCCC2)C1=O (stereo not given) | -5 | 2.5% | 5.2 | 1 | -0.6 | 8
62 | Cc1ccc(CN(Cc2ccco2)C(=O)c2oc3ccc(C)cc3c2C)cc1 | -13 | 2.9% | nt | nt | -0.2 | nt
63 | Cc1ccc(NS(=O)(=O)c2cc(OCC(N)=O)c(C)cc2Cl)cc1C | 1 | -0.4% | 4.2 | 2 | 0.6 | 6
64 | CCOC(=O)CCCNC(=O)CCNC(=O)c1ccc(OC(C)C)cc1 | 6 | ? | 0.2 | -15 | 0.1 | 5
65 | COc1ccc(/C(N)=N/OC(=O)c2cccc([N+](=O)[O-])c2C)cc1 | -5 | 2.9% | 3.4 | 4 | -1.1 | -5
66 | Cc1noc(C)c1COC(=O)c1cc2ccccc2cc1O | -4 | 6.5%[38.3 µM] | -1.1 | 5 | -0.5 | -1
67 | Cc1[nH]c(=O)[nH]c(=O)c1S(=O)(=O)Nc1ccc(S(N)(=O)=O)cc1 | -17 | -0.5% | -1.2 | -7 | -0.1 | -15
68 | Cc1ccc(Nc2c(-c3c[nH]c4ccccc34)nc3cc(C)ccn23)cc1 | -12 | 4.6% | nt | nt | 3.6 | nt

An unsorted share of the library, and some 1% of all compounds hit somewhere here.
